Cruzain inh noDet – qHTS Assay for Promiscuous and Specific Inhibitors of Cruzain (without detergent); 200,000 tested, 2.3% active; Cruzipain (Trypanosoma cruzi), P25779; Potency, µM, inactives show max response, negative = inhibition, hits mostly inhibitors; purified cruzain, Z-FR-AMC fluorescence, no detergent; active = well fitted curve in the direction sought with a large enough effect; inconclusive = small, poorly fitted or top-dose-only effect, or another doubt; inactive = no such curve, though single readings can be large; an effect the other way counts as inactive or inconclusive;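 also: plate controls were enzyme without inhibitor for no effect and buffer without enzyme for full effect; nearly all actives have a fitted effect of over 40% in size; top concentration of the series not given in the record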
Target sequence (P25779 123-467 limits assumed): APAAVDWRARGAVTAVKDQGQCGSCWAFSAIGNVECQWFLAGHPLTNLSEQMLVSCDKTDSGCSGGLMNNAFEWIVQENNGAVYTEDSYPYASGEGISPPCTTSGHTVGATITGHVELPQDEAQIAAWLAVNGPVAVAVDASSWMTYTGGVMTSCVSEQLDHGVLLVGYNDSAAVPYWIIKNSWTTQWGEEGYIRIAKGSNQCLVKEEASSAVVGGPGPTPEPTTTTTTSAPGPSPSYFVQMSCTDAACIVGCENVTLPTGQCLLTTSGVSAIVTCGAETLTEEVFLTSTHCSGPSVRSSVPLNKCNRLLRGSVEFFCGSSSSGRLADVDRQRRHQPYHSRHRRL
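Purified cruzain at 1.5 nM, pre-incubated 15 min with compound at room temperature in 100 mM sodium acetate pH 5.5, 5 mM DTT, 0.00005% Triton X-100. Reaction started with 2 uM Z-FR-AMC; AMC fluorescence increase over 60 s gives rate.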
Cruzain inh Det – qHTS Assay for Promiscuous and Specific Inhibitors of Cruzain (with detergent); purified cruzain, Z-FR-AMC fluorescence, 0.01% Triton; Potency, µM, without a hit: max response, negative = inhibition, most hits filed as inhibitors; 200,000 tested, 0.43% active; active = well fitted curve in the direction sought with a large enough effect; inconclusive = small, poorly fitted or top-dose-only effect, or another doubt; inactive = no such curve, though single readings can be large; an effect the other way counts as inactive or inconclusive;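 also: plate controls were neutral wells for no effect and buffer without enzyme for full effect; nearly all actives have a fitted effect of over 40% in size; top concentration of the series not given in the record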
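15 min RT preincubation of 1.5 nM cruzain with compound, then 2 uM Z-FR-AMC added; kinetic AMC fluorescence, 60 s delta. Triton X-100 0.01%, pH 5.5.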
StopGo reporter – High Throughput Screening for Foot and Mouth Disease Virus Antivirals; human cells with a luciferase reporter of 2A StopGo recoding; control for the full effect not named in the record; Potency, µM (titrated, usually from 57.9 µM), for the others: at the highest dose signal change, negative = less light; 410,000 tested, 1.2% active; AID 1159524, 2015; active = well fitted falling curve with a large enough effect; inconclusive = small, poorly fitted or top-dose-only effect; inactive = no such curve, though single readings can be large or run the other way; tested in HEK293T cells; also: % is scaled to controls: 0 for no effect and ±100 for the full control effect; nearly all actives have a fitted effect of over 45% in size; luciferase light after 4 h
Lassa entry inh – qHTS for Inhibitors of binding or entry into cells for Lassa Virus; 300,000 tested, 1.2% active; Potency, µM (highest dose often 37.9 µM), without a hit: at the highest dose activity change, negative = inhibition, actives largely listed as inhibitors; Lassa virus pseudotype entry inhibition, cell reporter; control for the full effect not named in the record; AID 540256, 2011; active means well fitted inhibition curve with a large enough effect; inconclusive means small, poorly fitted or top-dose-only effect, or effect the other way; inactive means flat fitted curve, though single readings scatter; tested in HEK293 cells; also: % is scaled to controls: 0 for no effect and ±100 for the full control effect; nearly all actives have a fitted effect of over 50% in size; luciferase read-out
MARV entry inh – qHTS for inhibitors of binding or entry into cells for Marburg Virus. 300,000 tested, 1.8% active. Marburg virus pseudotyped entry inhibition, cell reporter; control for the full effect not named in the record; about a third of the inactives were read at about 46 µM. Potency, µM (top dose mostly 37.8 µM), for inactives: at the top dose activity change, negative = inhibition, hits mostly inhibitors; active = well fitted inhibition curve with a large enough effect; inconclusive = small, poorly fitted or top-dose-only effect, or effect the other way; inactive = flat fitted curve, though single readings scatter; tested in HEK293 cells; about a fifth of its hits are not listed in these tables; also: % is scaled to controls: 0 for no effect and ±100 for the full control effect; luciferase read-out
RE007 growth inh – qHTS Assay for Inhibitors of the HIV-1 protein Vpr | S. pombe RE007 Vpr strain, BacTiter-Glo ATP luminescence, 24 h; control for the full effect not named in the record | Potency, µM (highest dose often 92.2 µM), for the others: top-dose activity change, negative = less growth | 360,000 tested, 0.21% active | AID 651644, 2012; active = well fitted falling curve with a large enough effect; inconclusive = small, poorly fitted or top-dose-only effect; inactive = no such curve, though single readings can be large or run the other way;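 also: % is scaled to controls: 0 for no effect and ±100 for the full control effect; nearly all actives have a fitted effect of over 50% in size; the assay follows cell death caused by Vpr and the record does not say whether a fall means rescue or toxicity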
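Fission yeast strain RE007, carrying one chromosomally integrated HIV-1 vpr copy, was seeded at OD 0.01 in PMG+AL medium with 23 nL pinned compound. After 24 h at 30 °C and 99% humidity, viability was read by BacTiter-Glo luminescence.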
NS1 function inh – qHTS Assay for Inhibitors of Influenza NS1 Protein Function | 270,000 tested, 0.4% active | S. cerevisiae slowed by influenza A NS1, growth recovery by OD600 | Potency, µM (doses to about 46.1 µM), without a hit: at the top dose activity, positive = more growth; also: actives are rising curves; nearly all actives have a fitted effect of over 50% in size
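In this qHTS, NS1 from influenza A is expressed in budding yeast, where it slows growth. Cells are switched from glucose to 2% galactose medium (pH 6.0, -URA), treated with compound, and growth recovery is read at OD600.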
SARS PLP yeast – qHTS of Yeast-based Assay for SARS-CoV PLP | S. cerevisiae expressing SARS-CoV PLpro, growth rescue; control for the full effect not named in the record | Potency, µM (series often up to 32.9 µM), without a hit: at the top dose activity, positive = growth rescue | 330,000 tested, 0.19% active; also: 0% is about no effect; nearly all actives have a fitted effect of over 55% in size; growth read by luminescence after 48 h
Numbers without * were called inactive; ? = inconclusive; nt = not tested or not shown; & = joins results of further samples; [ ] = remark or other dose. Unless noted, calls follow the shape of the dose curve; as a rule, active means well fitted rising curve with a large enough effect; inconclusive means small, poorly fitted or top-dose-only effect; inactive means no such curve, though single readings can be large or run the other way. Potency is read from the fitted curve at half-maximal effect.

SMILES	Cruzain inh noDet	Cruzain inh Det	StopGo reporter	Lassa entry inh	MARV entry inh	RE007 growth inh	NS1 function inh	SARS PLP yeast
O=C(Nc1ccc([N+](=O)[O-])cc1)Nc1ccc2c(c1)OCCO2	nt	nt	-9%	?	?	-1%	nt	5%
NS(=O)(=O)c1cc2c(cc1Cl)NC=NS2(=O)=O	10%&10%&4%&4%&-5%	3.1%&-1.4%&1.9%&2.3%&-1.6%	-20%&-9%	0%&-7%	?	1%	?	3%
COc1cc(Cl)c(S(=O)(=O)N2CCCC2)cc1Cl	nt	nt	10%	1%[46.1 µM]	-11%[46.1 µM]	-20%	4%	0%
O=C(CN(c1ccc2c(c1)OCCO2)S(=O)(=O)c1ccccc1)N1CCN(Cc2ccccc2)CC1	nt	nt	10%	-8%	?	-10%	-5%	0%
O=C(Nc1ccc2c(c1)OCO2)c1c(F)c(F)c(F)c(F)c1F	4%	-2.2%	-6%	-24%	-2%	-14%	-7%	-3%
COc1ccc2oc(C)c(C(=O)c3ccccc3)c2c1	nt	nt	-10%	8%	0%[46.1 µM]	-2%	nt	nt
COC(=O)C1CCN(C(=O)c2c(-c3ccccc3Cl)noc2C)CC1	7%	2.6%	2%	1%	16%	30%	-1%	1%
COC(=O)c1ccccc1NC(=O)CN1CCOCC1	0%	5.4%	4%	4%	5%	6%	-9%	-2%
COc1cc(/C=N/N=C2/NC(=O)C(CC(=O)O)S2)ccc1OCc1ccc(Cl)cc1 (configuration not stated)	6%	?	26%	-7%	48%	-2%	7%	28%
COc1ccc(OC)c(-c2c3cc(O)c(=O)cc-3oc3cc(O)c(O)cc23)c1	-30%	?	-26%	?	21µM*	?	?	?
Cc1ccccc1N1C(=O)CC(Sc2nnc(-c3ccccc3)o2)C1=O (configuration not stated)	3%	-3.2%	-26%	17%	9%&9%	?	-64%	-35%
CCN(N=Nc1nonc1OC)c1nonc1OC	-3%	-5.2%	-14%	-4%	19%	-11%	-3%	3%
COc1ccc(C(C(=O)NC2CCCC2)N(CC2CCCO2)C(=O)Cn2nnc(-c3ccc(C)o3)n2)cc1 (configuration not stated)	nt	nt	15%	-11%[46.1 µM]	-21%[46.1 µM]	0%	nt	-7%
O=C1CN(C(=O)COC(=O)/C=C/c2ccco2)c2ccccc2N1	nt	nt	1%	-1%	15%	25%	nt	1%
COc1ccc(N(C(=O)c2ccco2)C(C(=O)NC2CCCC2)c2cccnc2)c(OC)c1 (configuration not stated)	nt	nt	5%	0%	-4%[46.1 µM]	-12%	20%	3%
O=C(O)CSCC(=O)c1ccccc1	5%	-1.7%	nt	?	-2%&-2%	-11%	0%	12%
Cc1ccccc1C(=O)NNC(=O)CSc1nc(-c2ccccc2)cc(=O)[nH]1	nt	nt	6%	1%	-2%[46.1 µM]	20%	8%	4%
OC(COc1ccc2ccccc2c1)CN1CCN(c2ccc(F)cc2)CC1 (configuration not stated)	6%	-0.4%	0%	nt	nt	-4%	-6%	-4%
Cc1cc(/C=C(\C#N)C(=O)O)c(C)n1C1CC1	-7%	-10%	-12%	5%	15%	0%	25%	27%
CCSc1nnc(NC(=O)CSc2nc3c(c(=O)n2-c2ccccc2OC)SCC3)s1	-28%	28µM*	-17%	-9%	-25%	4%	12%	18%
OC(CNCc1ccc2c(c1)OCO2)COc1ccc(F)cc1 (configuration not stated)	nt	nt	8%	nt	nt	6%	1%	0%
CCOc1ccc(C(=O)CCC(=O)Nc2ccc(C)c(S(=O)(=O)N3CCCCC3)c2)cc1	nt	nt	?	?	?	11%	nt	-1%
CC(=O)Nc1ccc(-c2csc(Nc3cccc(C)n3)n2)cc1	nt	nt	27%	?	-15%	0%	3%	-1%
COc1cccc(/C=N/n2c(=O)[nH]c3ccccc32)c1OC	-3%	-4.7%	49%[activator]	-22%	?	-26%	-12%	-3%
COc1ccc(NC(=O)CSCc2ccc([N+](=O)[O-])cc2)cc1OC	nt	nt	-29%	?	-29%	-26%	9%	-3%
O=C(NCc1ccccc1Cl)c1ccc(NC(=O)c2nsc3ccccc23)cc1	-14%	0.4%	-8%	19%[46.1 µM]	nt	nt	nt	nt
O=C(NC(=S)Nc1ccc(O)cc1)c1ccccc1Cl	nt	nt	61%[activator]	nt	nt	-2%	6%	-2%
Cc1cc(C)nc(SCC(=O)NNC(=O)c2ccccc2C)n1	nt	nt	0%	nt	nt	12%	0%	0%
CC(Nc1ccc(-c2nc(-c3ccccn3)no2)cc1[N+](=O)[O-])c1ccccc1 (configuration not stated)	21%	-2.7%	0%	-11%[46.1 µM]	-4%[46.1 µM]	nt	nt	nt
CCC(C)[C@H](NC(=O)[C@@H]1CSC2c3ccccc3C(=O)N21)C(=O)N1CCCCC1 (some centres not stated)	nt	nt	2%	nt	nt	0%	18%	-4%
O=C(Nc1ccccc1)c1ccccc1OCc1ccc(F)cc1	nt	nt	-30%	nt	nt	-5%	-28%	9%
O=C(O)c1ccc(CSc2nc(-c3ccccc3)cc(C(F)(F)F)n2)cc1	15%	-5.6%	-19%	6%	?	1%	-7%	-4%
Cc1ccc(C(=O)C2=C(O)C(=O)N(CCCn3ccnc3)C2c2ccc(OC(C)C)cc2)o1 (configuration not stated)	-5%	-0.6%	nt	7%	26%	-4%	10%	-7%
O=C(Nc1cc(Cl)cc(Cl)c1)c1ccc(F)c(S(=O)(=O)N2CCN(c3ccccc3F)CC2)c1	-3%	0.9%	-20%	-14%[46.1 µM]	nt	nt	nt	nt
CCC(=O)NCCc1nc2cc(NC(=O)c3cccs3)ccc2n1C	nt	nt	1%	nt	?	-1%	nt	1%
COc1ccc(-c2c3c(nc4sc(C(=O)Nc5ccc(F)cc5)c(N)c24)CC(C)(C)CC3=O)cc1	-2%	-1.2%	-5%	2%[46.1 µM]	3%[46.1 µM]	nt	nt	nt
CCC1CCCCN1C(=O)Cn1c(=O)n(CCCCCC(=O)NCc2ccccc2)c(=O)c2sccc21 (configuration not stated)	12%	-1.7%	-11%	-5%[46.1 µM]	-20%[46.1 µM]	nt	nt	nt
Cc1nn(C(C)C)c(C)c1CN1CCCC(CCC(=O)NCc2ccccc2F)C1 (configuration not stated)	nt	nt	-5%	1%	-24%[46.1 µM]	-11%	1%	-1%
COc1ccc(N2C(=O)C(Cl)=C(Nc3c(C)n(C)n(-c4ccccc4)c3=O)C2=O)cc1	2%	-0.4%	nt	-23%	2%	-3%	-62%	2%
CCCc1cc(=O)[nH]c(SCc2ccccc2Cl)n1	-12%	-1.1%	7%	12%	?	13%[3.69 µM]	-15%	-7%
O=C(CCl)Nc1nc(-c2ccco2)c(-c2ccco2)s1	-9%	-16%	-29%	?	?	6%	-28%	-29%
Cc1cc(C)cc(NC(=O)CCNC(=O)c2ccc([N+](=O)[O-])cc2)c1	nt	nt	-18%	9%[46.1 µM]	-3%[46.1 µM]	-5%	-3%	1%
CCC(=O)N1CCc2cc(Br)cc(S(=O)(=O)N3CCCC(C(=O)Nc4cc(C)ccc4OC)C3)c21 (configuration not stated)	-13%	-1.7%	-12%	18%[46.1 µM]	?	nt	nt	nt
O=C(Nc1ccc(F)cc1F)c1csc(-c2ccccc2)n1	nt	nt	35%[activator]	6%	29%[46.1 µM]	-23%	1%	-1%
[O-][n+]1ccc(C2CC2)cc1	-3%	4.2%	-14%	4%	6%	0%	4%	-2%
Cc1ccc2c(c1)-c1onc(C(=O)N(C)c3cccc(C(F)(F)F)c3)c1CO2	?	-2.5%	-12%	-2%[46.1 µM]	nt	nt	nt	nt
O=c1oc2cc(O)ccc2c2ccccc12	-12%	-12%	-5%	16%	-4%&-4%	-4%	-82%	-17%
CC1CC(C)CN(C(=O)CSc2nnc3ccccn23)C1 (configuration not stated)	nt	nt	0%	17%	?	6%	nt	0%
CC1CC(C)CN(C(=O)CCCNC(=O)c2ccc(Cl)cc2)C1 (configuration not stated)	nt	nt	?	9%[46.1 µM]	8%[46.1 µM]	7%	-11%	7%
CC(CCc1ccccc1)NC(=O)CCc1cn(C)c2ccccc12 (configuration not stated)	nt	nt	-21%	-23%[46.1 µM]	?	-18%	-8%	-2%
Cc1n[nH]c(C)c1N=Nc1cc(Cl)ccc1Cl	?	-0.9%	6%	4%	-27%	-11%	-39%	-3%
O=C1NN(c2ccccc2)C(=O)/C1=C\c1ccc2c(c1)OCO2	nt	nt	-10%	-3%	15%	0%	21%	2%
CCCCOC(=O)/C(=C/c1cn(C)c2ccccc12)NC(=O)c1ccc(OC)cc1	-3%	-12%	19%	?	3%	-3%	4%	3%
CCCCS(=O)c1snnc1C (configuration not stated)	nt	nt	-6%	0%	7%[46.1 µM]	31%	3%	1%
COc1ccccc1CN(C)C(=O)c1ccccc1Sc1ccccc1C#N	nt	nt	-23%	-18%	-9%	-2%	-10%	3%
C/C(=N\NC(=S)NC(C)C)c1ccco1	nt	nt	5%	?	3%	9%	nt	1%
COc1ccc(NS(=O)(=O)c2nnc(NC(=O)c3ccccc3F)s2)cc1	-4%	-1.5%	36%&18%[activator]	9%[46.1 µM]	nt	-1%	-8%	-1%
Cc1c(CC(=O)O)c(=O)oc2cc(OCc3nn[nH]n3)ccc12	-5%	-2.3%	5%	-12%	2%	-2%	3%	1%
NNC(=O)c1oc2nc(-c3ccc(Cl)cc3)cc(-c3ccccc3)c2c1N	nt	nt	?	?	-20%[46.1 µM]	26%	25%	-3%
CC1(CCC(=O)O)C(=O)CCC2C1CCC1(C)C2CCC1(C)O (configuration not stated)	nt	nt	-5%	?	-7%	7%	nt	nt
Cc1ccc2occ(CC(=O)Nc3ccc(S(N)(=O)=O)cc3)c2c1	-8%	-1.2%	-13%	8%[46.1 µM]	?	nt	nt	nt
CCOc1c(Br)cc(C(=O)N2CCCN(C)CC2)cc1OC	nt	nt	-24%	nt	nt	3%	3%	-2%
